# VDR inh: inhibitors of human vitamin D receptor; P11473; VDR-SRC2-3 peptide fluorescence polarization, 2 h; Potency, µM, without a hit: max response, negative = inhibition, actives largely listed as inhibitors; actives 0.93% (n = 400,000); active = well fitted inhibition curve with a large enough effect; inconclusive = small, poorly fitted or top-dose-only effect, or another doubt; inactive = no such curve, though single readings can be large or run the other way; note: series mostly up to about 120 µM
# Target sequence (P11473 whole entry, looked up): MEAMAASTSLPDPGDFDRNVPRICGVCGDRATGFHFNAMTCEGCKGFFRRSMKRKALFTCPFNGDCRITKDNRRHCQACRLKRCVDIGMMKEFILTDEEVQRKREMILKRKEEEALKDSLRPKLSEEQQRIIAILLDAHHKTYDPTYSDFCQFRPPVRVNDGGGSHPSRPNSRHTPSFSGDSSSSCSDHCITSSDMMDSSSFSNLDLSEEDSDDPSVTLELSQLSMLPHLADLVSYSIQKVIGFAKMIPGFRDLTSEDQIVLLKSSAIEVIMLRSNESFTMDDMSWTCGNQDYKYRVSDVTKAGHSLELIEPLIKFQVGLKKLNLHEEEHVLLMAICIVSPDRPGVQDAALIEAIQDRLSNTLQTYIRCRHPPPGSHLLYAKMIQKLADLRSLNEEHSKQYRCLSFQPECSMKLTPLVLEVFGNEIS
#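 FP read-out; VDR + SRC2-3 coactivator peptide; 23 nl compound by pintool; 2 h RT incubation; reagents held at 4 deg C, protected from light.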
# Active calls of the source: *; ? = inconclusive; [ ] = dose if it differs, or a comment. % is set by controls: 0 for no effect and ±100 for the full control effect; potency is the fitted concentration of half-maximal effect. Some of the compounds tested, so the mix of outcomes need not match the whole.
VDR inh,canonical_smiles
-11%,Cc1ccc(N(C(=O)CNC(=O)c2cccs2)C(C(=O)NC2CCCC2)c2ccncc2)cc1 (configuration not stated)
-9%,Cc1ccc(C(=O)N2CCC(Cc3ccccc3)CC2)cc1[N+](=O)[O-]
7%,CCOc1ccc2[nH]cc(C(=O)NCc3ccc(F)cc3)c(=O)c2c1
11%,Cc1nnc(SCC(=O)NC2CCS(=O)(=O)C2)n1Cc1ccccc1 (configuration not stated)
15%,CCn1c(CC(=O)Nc2ccc(F)cc2)nnc1SCC(=O)Nc1nnc(C)s1
0%,CN(C(=O)CS(=O)(=O)Cc1ccccc1Cl)c1ccccc1
-11%,Cc1ccc(CNC(=O)c2ccc(Cn3c(SCc4ccc(F)cc4)nc4cccnc43)cc2)o1
-12%,CCC(C)(C)C1CCC(NC(=O)N2CCN(c3ccccc3O)CC2)CC1 (configuration not stated)
6%,COc1ccccc1NCc1cccn1-c1nnc(N2CCCCCC2)s1
-17%,Cn1ncc(Cl)c1C(=O)N1CCN(c2cccc(Cl)c2)CC1
8%,O=C(NCc1ccco1)Oc1ccccc1
-3%,COc1cccc(/C=N/Nc2nc(-c3cccnc3)nc3ccccc23)c1
4%,CS(=O)(=O)N1CCC2CC1c1cc(-c3ccccc3)ccc12 (configuration not stated)
-9%,CCn1c(C)[n+](CCOC(C)=O)c2cc(Cl)c(Cl)cc21
-12%,Cc1ccccc1NCC(=O)N/N=C\c1ccc([N+](=O)[O-])s1
-3%,Cc1ccccc1NC(=O)CSc1nc(COc2ccccc2)nc2ccccc12
2%,COC(=O)C(NC(C)=O)(Nc1nc2ccc(C)cc2s1)C(F)(F)F (configuration not stated)
6%,CCOc1ccc(S(=O)(=O)N2CCN(c3ccc(OC)cc3)CC2)c2cccnc12
-1%,CCN1C(=O)[C@@H]2[C@H](C1=O)[C@@H]1C[C@H]3C(=O)N(CC)C(=O)[C@H]3[C@@H]3C1=C(C(=O)N1C(=O)OC(=NCC4CC4)[C@]31C)[C@@H]2C
16%,COc1cccc(C(C#N)N2CCCCC2)c1O (configuration not stated)
9%,COCCN(C(=O)COC(=O)COc1ccc2ccccc2c1)c1c(N)n(Cc2ccccc2)c(=O)[nH]c1=O
0%,COc1cccc(C(=O)/C=C/Nc2cc(C)ccc2O)c1
10%,COc1ccc(NC(=O)C2CCN(S(=O)(=O)c3cc(-c4noc(C)n4)ccc3C)CC2)cc1
-12%,CC1Cc2cc(/C(O)=C3/C(=O)C(=O)N(CC4CCCO4)C3c3ccco3)ccc2O1 (configuration not stated)
42%[activator],CC(=O)N1CCc2cc(S(=O)(=O)NCCC(=O)N3CCN(Cc4ccccc4)CC3)ccc21

# Taken from above.
# Cc1nnc(SCC(=O)NC2CCS(=O)(=O)C2)n1Cc1ccccc1 (configuration not stated) in VDR inh is listed with 11%
# COc1ccc(NC(=O)C2CCN(S(=O)(=O)c3cc(-c4noc(C)n4)ccc3C)CC2)cc1 in VDR inh is listed with 10%
# CS(=O)(=O)N1CCC2CC1c1cc(-c3ccccc3)ccc12 (configuration not stated) in VDR inh is listed with 4%
# CC(=O)N1CCc2cc(S(=O)(=O)NCCC(=O)N3CCN(Cc4ccccc4)CC3)ccc21 in VDR inh is listed with 42%[activator]

# An excerpt from above in order of number of heavy atoms, smallest number first:
VDR inh,canonical_smiles
-17%,Cn1ncc(Cl)c1C(=O)N1CCN(c2cccc(Cl)c2)CC1
-3%,Cc1ccccc1NC(=O)CSc1nc(COc2ccccc2)nc2ccccc12
10%,COc1ccc(NC(=O)C2CCN(S(=O)(=O)c3cc(-c4noc(C)n4)ccc3C)CC2)cc1

# (more compounds)
VDR inh,canonical_smiles
-2%,CN(C)c1ccc(CNn2cnnc2SCC(=O)NC(C)(C)C)cc1
-4%,CCOC(=O)c1nnc(-c2ccccc2)o1
6%,CC(C)(C)OC(=O)NCCCC1=CC2=CC(=O)C(C)(O)C(=O)C2=CO1 (configuration not stated)
-10%,COc1ccc(OC)c(-c2csc(NC(=O)CSc3ccc([N+](=O)[O-])cc3)n2)c1
-1%,COc1ccc(CNC(=O)Cc2ccc(NC(=O)N3CCCCc4ccccc43)cc2)cc1
-16%,CCc1ccc(S(=O)(=O)c2nnn3c2nc(N(C)Cc2ccccc2)c2cc(Cl)ccc23)cc1
0%,NC(=O)c1ccccc1Nc1nc(NCCO)nc(N2CCCC2)n1
11%,NNC(=O)CN1CCN(c2ncc(C(F)(F)F)cc2Cl)CC1
-5%,O=C(COC(=O)CCNS(=O)(=O)c1cccs1)Nc1cc(C(F)(F)F)ccc1Cl
-2%,CN1CCN(C2Cc3ccccc3Sc3cc(C(F)(F)F)ccc32)CC1 (configuration not stated)
-3%,CCCCCCCCCCCC(=O)c1c(O)cccc1O
-9%,CC1=Nc2ccccc2N=C(NC(=O)c2ccccc2)C1c1ccc(Cl)cc1 (configuration not stated)
7%,COCC(=O)Nc1ccccc1C#N
-8%,CCN(CC)C(=O)CSc1nnc([C@@H](N)Cc2ccccc2)o1
-5%,O=C(Nc1ccc(F)c(F)c1)c1cc(S(=O)(=O)N2CCN(c3ccccn3)CC2)ccc1F
-16%,CC(OC(=O)Cc1c(F)cccc1Cl)C(=O)NC1(C#N)CCCCC1 (configuration not stated)
1%,CCN(CC)CCN(C)c1ccc(N2C(=O)C3CC=CCC3C2=O)cc1[N+](=O)[O-] (configuration not stated)
10%,O=C(O)c1ccc2c(c1)OCCOCCOCCOCCOCCO2
-5%,Cc1ccc2c(c1)NC(=O)[C@@]1(C)[C@@H](c3ccccc3)[C@H]3COc4ccccc4[C@@H]3N1C2=O
6%,Cc1c(C(=O)O)oc2c1C(O)CCC2 (configuration not stated)
3%,COc1cc(OC)cc(C(=O)Nc2cc(-c3nc4ccccc4s3)ccc2OC)c1
3%,Cc1cc(NC(=O)Cn2c(=O)oc3cc(S(=O)(=O)N4CCCC4)ccc32)ccc1Br
-13%,O=C(N/N=C/c1sc(N2CCOCC2)nc1-c1ccccc1)c1ccccc1Cl
4%,Cc1ccc(C2CC(C(F)(F)F)n3nc(C(=O)NCc4ccco4)cc3N2)cc1 (configuration not stated)
-8%,Cc1ccccc1-n1cc(CNCc2c(C(=O)N(C)C)nc3ccc(Cl)cn23)cn1

# The final five compounds of the section before are carried over, then new ones follow.
VDR inh,canonical_smiles
3%,COc1cc(OC)cc(C(=O)Nc2cc(-c3nc4ccccc4s3)ccc2OC)c1
3%,Cc1cc(NC(=O)Cn2c(=O)oc3cc(S(=O)(=O)N4CCCC4)ccc32)ccc1Br
-13%,O=C(N/N=C/c1sc(N2CCOCC2)nc1-c1ccccc1)c1ccccc1Cl
4%,Cc1ccc(C2CC(C(F)(F)F)n3nc(C(=O)NCc4ccco4)cc3N2)cc1 (configuration not stated)
-8%,Cc1ccccc1-n1cc(CNCc2c(C(=O)N(C)C)nc3ccc(Cl)cn23)cn1
-17%,CCOc1ccccc1NC(=O)C(OC(=O)c1ccc(O)cc1)c1ccccc1 (configuration not stated)
-1%,O=C(Cc1ccc(Cl)cc1)Nc1cccc2ncccc12
-3%,CCN1CCN(S(=O)(=O)c2ccc(Cl)c(C(=O)NC3CCCC3)c2)CC1
6%,CCCC(=O)N(CC(=O)Nc1sc(C)c(C)c1C(N)=O)Cc1ccccc1
2%,CCCCNC(=S)NNC(=O)C12CC3CC(CC(C3)C1)C2
-13%,CC(=O)c1ccc(NC(=O)CCC(=O)N2CC(C)Oc3ccc(C)cc32)cc1 (configuration not stated)
-22%,C=CCn1c(SCC(=O)NCC2CCCO2)nc2sc(C)c(C)c2c1=O (configuration not stated)
-16%,COc1ccc(-c2nnn3c2nc(NCc2ccc(C)cc2)c2ccccc23)cc1
-20%,CN(CC(=O)Nc1ccc(C#N)cc1)CC(=O)Nc1ccc(N2CCOCC2)cc1
7%,CC(C)C(=O)Nc1ccc(-c2nc3cccnc3o2)cc1
-14%,CCCC(=O)Nc1c(-c2ccc(C)cc2)c(=O)c2ccccc2n1C
4%,Cc1ccc2c(=O)c3cccc(CC(=O)O)c3oc2c1C
-4%,CCN(CC)c1ccc(/C=N/N2CCN(c3ccccn3)CC2)cc1
3%,CCOc1ccc(NC(=O)c2sc3nc(-c4ccc(OC)cc4)cn3c2C)cc1
-23%,NNC(=O)c1cccc(COCC(F)(F)C(F)F)c1
-5%,COC(=O)c1ccc(NC(=O)C2(S(=O)(=O)c3ccc(C)cc3)CC2)cc1
-23%,CCOc1ccc(CCNC(=O)COC(=O)c2ccc[nH]c2=O)cc1OCC
-20%,COc1nc(Nc2ccc3c(c2)OCO3)nc(OC)n1
1%,Cc1oc(-c2cccc(F)c2)nc1CN(Cc1ccccc1)C[C@@H]1CCC(=O)N1
-19%,Cc1ccccc1NC(=O)c1sc2nc(-c3ccncc3)ccc2c1N
22%,COCc1cc(=O)[nH]c(Nc2nc3ccc(C)cc3o2)n1
-13%,Nn1c(SC/C=C/c2ccccc2)nnc1-c1ccncc1
-1%,CCN(CC)c1ccc(/C=C2/C(=O)c3ccc(C(=O)O)cc3C2=O)cc1
10%,COCCN1C(=O)N[C@@H](c2cccc(C(F)(F)F)c2)[C@H](C(C)=O)[C@H]1C
-7%,CCN(CC)C(=O)c1ccc(-c2nnc(Nc3cccc(O)c3)c3ccccc23)cc1

VDR inh,canonical_smiles
-20%,COC(C[C@H](O)C[C@H](O)[C@H](C)OCc1ccccc1)OC
-4%,COCCCNC(=O)C1CCN(Cc2cc3ccccc3n2Cc2ccccc2C)CC1
16%,COC(=O)c1cc2sc(C)cc2n1Cc1ccc(Br)cc1F
-6%,COC(=O)C1C(O)=C(C=NC2CCCCC2)C(=O)CC1(C)C (configuration not stated)
-27%,CCCCCC(CC(=O)NO)C(=O)NC(C(=O)N1CCCC1CO)C(C)C (configuration not stated)
-10%,CCN=C1NN=C(c2cc(C)n(CCc3ccccc3)c2C)CS1
-2%,CC1CCCCN1S(=O)(=O)c1ccc2c(c1)CCN2C(=O)C1CCC1 (configuration not stated)
9%,CCOC(=O)C1(C)C=C(Nc2ccc(C)cc2)C(=O)N1c1ccc(C)cc1 (configuration not stated)
2%,CCc1ccc(C(=O)COC(=O)c2ccc(Cl)nc2)cc1
-6%,Cc1nnc(SCC(=O)Nc2nc(-c3ccc(F)cc3)cs2)[nH]c1=O
1%,Cc1ccc(C[n+]2cc(-c3ccc(Cl)cc3)n3c2CCC3)cc1
-4%,Cc1cc(NC(=O)CSc2nc3ccsc3c(=O)n2NC(=O)c2ccccc2)no1
-26%,Nc1ccc(N2CCN(CCCCN3C(=O)C4CCCN4C3=O)CC2)cc1 (configuration not stated)
1%,CCN1CCN(S(=O)(=O)c2ccc(Cl)c(C(=O)N(C)Cc3ccco3)c2)CC1
23%,O=C(NCCCN1CCOCC1)c1ccc(Cl)c([N+](=O)[O-])c1
0%,COc1ccccc1-c1cncnc1NCc1cccc(C)c1
-5%,O=C(NCC(=O)N1CCOCC1)c1ccc(Br)o1
-4%,NC(=O)c1nsc(C(=O)N(c2cccc(O)c2)C(C(=O)NC2CCCC2)c2ccc(Cl)cc2)c1N (configuration not stated)
-28%,C/C(=N\NC(=O)Cc1cccn1C)c1ccco1
-19%,CCOC(=O)Cc1csc(NC(=O)/C=C/c2ccco2)n1
1%,Cc1c(C(=O)OCC(=O)N2CC(C)CC(C)C2)oc2ccccc12 (configuration not stated)
?,Cc1ccc(-c2nc(C=Nc3ccccc3)c(O)o2)cc1
13%,CCN(CC)C(=O)C1CCN(Cc2ccc(OCc3ccccc3)cc2)CC1
4%,Cc1ccccc1C(=O)NC1(C(F)(F)F)N=C(c2ccccc2)N(Cc2ccccc2)C1=O (configuration not stated)
14%,O=C(/C=C/c1ccc(F)cc1)Nc1ccc(S(=O)(=O)N2CCOCC2)cc1

VDR inh,canonical_smiles
-9%,Cc1ccc(SC(C)c2nc(-c3ccncc3)no2)cc1 (configuration not stated)
3%,CN(C(=O)CC1C(=O)NCCN1Cc1ccccc1F)C1CCOCC1 (configuration not stated)
-3%,COc1ccc(OC)c(NC(=O)COC(=O)[C@H](Cc2ccccc2)NC(=O)c2ccco2)c1
16%,O=C(Cn1c(=O)oc2cc(S(=O)(=O)N3CCCCCC3)ccc21)NC1CCCCCCC1
-11%,COc1cccc(NC(=O)CN(C)C(=O)c2cc3c(s2)CCCCC3)c1
-2%,CC(=O)c1ccc(N2CCN(CC(O)c3ccccc3)CC2)cc1 (configuration not stated)
24%,COc1ccc(NC(=O)CCS(=O)(=O)c2ccccc2Cl)cc1S(=O)(=O)Nc1ccc(Cl)cc1
-11%,CCN(C(=O)c1noc2c1COc1ccc(C)cc1-2)c1cccc(C)c1
-3%,CC(C)CN(C(=O)c1cccc(Cl)c1)c1c(N)n(Cc2ccccc2)c(=O)[nH]c1=O
4%,O=C(O)C1CCCCC1C(=O)Nc1ccc2c(c1)OCO2 (configuration not stated)
-22%,N/C(=N\OC(=O)c1ccc(Cl)cc1)c1ccn[nH]1
1%,CCOC(=O)c1sc(Nc2nc(C)cc(C)n2)nc1C
5%,Cc1cccc(CSc2nnc(C)c(=O)n2N)c1
-19%,Cc1ccc(NC(=S)NC(NC(=O)c2ccccc2)C(Cl)(Cl)Cl)c(C)c1 (configuration not stated)
-30%,Cc1nn(CC(=O)Nc2cccc(C(F)(F)F)c2)c(=O)c2cccn12
-3%,CCOc1ccc(NC(=O)CN(C)C(=O)c2cc(S(=O)(=O)N(C)C)ccc2N2CCCC2)cc1OCC
3%,COc1ccc(CNCC(O)(c2ccccc2)c2ccc(F)cc2)cc1 (configuration not stated)
-22%,CCCCCN(C(=O)CCC(=O)OCC(=O)c1ccc(F)c(F)c1)c1c(N)n(CCCC)c(=O)[nH]c1=O
-3%,COc1ccc(-c2noc(CSc3nnc(C)n3-c3ccc(C)cc3)n2)cc1
15%,COc1cccc(-n2c(=O)c3c(C)c(C)sc3n(CC(=O)NCc3ccc(C)cc3)c2=O)c1
-10%,Cc1ccc(CNC(=S)N2CCOCC2)cc1
-4%,O=C(NCCc1ccccc1)C1CCN(S(=O)(=O)N2CCC3(CC2)OCCO3)CC1
-6%,O=C1CSC(c2ccccn2)N1Cc1cn2ccccc2n1 (configuration not stated)

# From PubChem BioAssay
